Compound activity from PubChem BioAssay.
NPYLR7 agonist – mosquito NPYLR7 agonism; HEK293T NPYLR7/Galpha15, GCaMP6s calcium fluorescence; activation, % at 10 µM; hit rate 0.15% among 270,000; AID 1259423; in the data active = activation above about 40%;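 note: 0% = vehicle and 100% = reference agonist at the receptor; some compounds past the cut are filed as inactive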
NPYLR7 agonist max-min – also measured in NPYLR7 agonist; calls as there; activation, %; measured here: Max-Min RFU normalised activation; some inactives read as strong as hits;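 span of the calcium signal over five minutes; 0% = vehicle and 100% = native peptide agonist; compound fluorescence can raise it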
* marks the source's active call; other numbers are inactive results; & = joins results of further samples.

SMILES | NPYLR7 agonist | NPYLR7 agonist max-min
CNC(=O)COc1ccc(-c2ccccc2Cl)cc1 | 6 | 2
Cc1cccc(CNC(=O)c2ccccc2NC(=O)Cn2cc(Cl)cn2)c1 | 1 | 16
CC(O)CN(Cc1ccccc1)C(=O)CCNC(=O)c1ccsc1 (configuration not stated) | 8 | 7
Cc1[nH]cnc1-c1nccn1C(C)Cn1ccc2ccccc21 (configuration not stated) | 6 | 3
CCn1c(C)c(C(=O)CN(Cc2ccco2)S(=O)(=O)c2cccc(C(F)(F)F)c2)c(C)c1C(=O)OC | -12 | -2
C=CCN(Cc1nccn1Cc1cccc(C)c1)C(=O)c1ccco1 | 20 | 33
Cc1cc(C(=O)N=c2sc3cccc(Cl)c3n2C)on1 | 4 | 6
O=C(NCCOCc1ccc(Cl)cc1)c1ncn[nH]1 | -2 | -3
COc1ccc(NC(=O)/C=C/c2cc(C)n(C3CC3)c2C)cn1 | 8 | 5
Cc1cc(NCc2cccc(C(F)(F)F)c2)nc(N)n1 | 5 | 4
Cc1ccsc1C(=O)N1CCCC(N2CCN(c3cccc(Cl)c3)CC2)C1 (configuration not stated) | -2 | -4
Cc1c(C#N)c(NC(=O)Cn2ccnc2C)n(C2CCCCC2)c1C | 8 | 7
Cc1cc(C)c(C(=O)N(CCN(C)C)CC2CCCN(Cc3ccccc3F)C2)o1 (configuration not stated) | 11 | 5
CN(C)CCCN(C(=O)c1ccc(C#N)cc1)c1nc2cc3c(cc2s1)OCO3 | -1 | -2
CNc1ccc(C)cc1C(=O)N1CCc2nc(N(C)C)[nH]c(=O)c2CC1 | -7 | -6
CCC(NC(=O)Nc1nncs1)c1cccc(Cl)c1 (configuration not stated) | -1&0 | 0&2
Cc1ccc(NC(=O)C2(C)CCN2CCc2ccccc2)cc1 (configuration not stated) | -3 | -5
O=C(OCc1cc(-c2ccc(F)cc2F)on1)c1cc2ccccc2oc1=O | -3 | -5
CCOC(=O)C1=C(C)N=c2s/c(=C/c3ccc(OC)c(OC)c3)c(=O)n2C1c1ccc(OC(C)=O)cc1 (configuration not stated) | 4 | 4
CCSc1nnc2ccc(-c3ccc(C)cc3)nn12 | -15 | -11
O=C(CSCc1ccc(Cl)cc1Cl)NCCc1ncn[nH]1 | 6 | 3
O=C1NCCN2CCN(C(=O)c3ccccc3NCc3ccccn3)CC12 (configuration not stated) | 6 | 2
O=C(CSc1ccc2nnc(-c3ccccn3)n2n1)Nc1nccs1 | 0 | 0
Cc1cccc(OCCCn2c(C3CC(=O)N(C(C)(C)C)C3)nc3ccccc32)c1 (configuration not stated) | -3 | -6
Cc1cc(C(=O)CSc2ncn[nH]2)c(C)n1C1CC1 | -1 | 4
CCn1cc(NC(=O)N2CCC(C(N)=O)CC2)c2ccccc21 | -2 | -7
CCCN1CCC(C)(C(=O)Nc2ccccc2-c2ccccc2)C1 (configuration not stated) | 1 | -2
COc1cccc(CN2CCCC(NCc3cnn(-c4ccccc4C)c3)C2)c1 (configuration not stated) | -10 | -13
Cc1cc(OCC(=O)OCc2ccc(C#N)cc2)no1 | 0 | -5
O=C(COc1ccc(Cl)cc1)Nc1ccccn1 | 1 | 2
CN(C)CCCNCC(O)COCc1ccc2c(c1)OCO2 (configuration not stated) | -4 | -11
COC(=O)NC1CCN(c2ccccc2C(=O)NCCN2CCCCC2)CC1 | 25 | 23
O=c1cc[nH]c2ccc(F)cc12 | -4 | 4
COc1ccc(C(=O)Nc2ccc(O)c(-c3nc4cc(C)ccc4o3)c2)cc1Br | 10 | 10
O=C(COc1ccc(Cl)cc1)N1CCCC(OCc2ccc(F)c(F)c2)C1 (configuration not stated) | -3 | -2
COC(=O)CN1CCN(Cc2cccc3c2OCO3)C(C)C1=O (configuration not stated) | 7 | -7
CCn1ncc2c1CCCC2NCc1ccc(N2CCOCC2)cc1 (configuration not stated) | 1 | -1
Clc1cccc(N2CCN(c3nc4ccccc4n4nnnc34)CC2)c1 | 0 | -2
CCS(=O)(=O)c1ccc(C(=O)N(Cc2cccnc2)c2nc3cc(C)c(C)cc3s2)cc1 | 0 | -2
COCCn1c(C)cc(O)c(C(c2ccc(C)cc2)N2CCN(c3ccccn3)CC2)c1=O (configuration not stated) | 6 | -3
COc1ccc(OC)c(CSc2nc3cc(S(=O)(=O)N4CCOCC4)ccc3n2CC2CCCO2)c1 (configuration not stated) | 5 | 0
CCCCCc1ccc(C(=O)N2CCN(C(=O)CCCSc3nnc(-c4ccc(C)cc4)n3-c3ccccc3C)CC2C)cc1 (configuration not stated) | -8 | -9
Cc1cccc(-n2ncc3c2ncn2c(-c4ccco4)nnc32)c1 | 25 | 16
CC(=O)c1cccc(Nc2cc3[nH]c(-c4ccccc4)cc3cn2)c1 | 1 | -3
CCCCCOC(=O)CSc1n[nH]c(=O)[nH]c1=O | -3 | -4

A section from the list above:
SMILES | NPYLR7 agonist | NPYLR7 agonist max-min
Cc1cc(OCC(=O)OCc2ccc(C#N)cc2)no1 | 0 | -5
O=C(COc1ccc(Cl)cc1)Nc1ccccn1 | 1 | 2
CN(C)CCCNCC(O)COCc1ccc2c(c1)OCO2 (configuration not stated) | -4 | -11
COC(=O)NC1CCN(c2ccccc2C(=O)NCCN2CCCCC2)CC1 | 25 | 23
O=c1cc[nH]c2ccc(F)cc12 | -4 | 4
COc1ccc(C(=O)Nc2ccc(O)c(-c3nc4cc(C)ccc4o3)c2)cc1Br | 10 | 10
O=C(COc1ccc(Cl)cc1)N1CCCC(OCc2ccc(F)c(F)c2)C1 (configuration not stated) | -3 | -2
COC(=O)CN1CCN(Cc2cccc3c2OCO3)C(C)C1=O (configuration not stated) | 7 | -7
CCn1ncc2c1CCCC2NCc1ccc(N2CCOCC2)cc1 (configuration not stated) | 1 | -1
Clc1cccc(N2CCN(c3nc4ccccc4n4nnnc34)CC2)c1 | 0 | -2
CCS(=O)(=O)c1ccc(C(=O)N(Cc2cccnc2)c2nc3cc(C)c(C)cc3s2)cc1 | 0 | -2
COCCn1c(C)cc(O)c(C(c2ccc(C)cc2)N2CCN(c3ccccn3)CC2)c1=O (configuration not stated) | 6 | -3
COc1ccc(OC)c(CSc2nc3cc(S(=O)(=O)N4CCOCC4)ccc3n2CC2CCCO2)c1 (configuration not stated) | 5 | 0
CCCCCc1ccc(C(=O)N2CCN(C(=O)CCCSc3nnc(-c4ccc(C)cc4)n3-c3ccccc3C)CC2C)cc1 (configuration not stated) | -8 | -9
Cc1cccc(-n2ncc3c2ncn2c(-c4ccco4)nnc32)c1 | 25 | 16
CC(=O)c1cccc(Nc2cc3[nH]c(-c4ccccc4)cc3cn2)c1 | 1 | -3
CCCCCOC(=O)CSc1n[nH]c(=O)[nH]c1=O | -3 | -4

Further records follow.
SMILES | NPYLR7 agonist | NPYLR7 agonist max-min
CCN1CC(CN(C)c2ccc(S(=O)(=O)N3CCN(C)CC3)cc2[N+](=O)[O-])Oc2ccccc21 (configuration not stated) | -4 | -4
Cn1cc(NC(=O)Nc2ccc(C(N)=O)cc2)c2ccccc21 | -2 | -7
CSc1nc(CN2CCN(c3ccc(C(C)=O)cc3)CC2)cc(=O)[nH]1 | 4 | 2
O=[N+]([O-])c1cc(Cl)ccc1S(=O)(=O)N1CCN(Cc2ccccc2)CC1 | -19 | -23
CCC(C(=O)Nc1ccc(N2CCC(Cc3ccccc3)CC2)c(C(=O)NCc2ccc(F)cc2)c1)c1ccccc1 (configuration not stated) | -9 | -4
CCOC(=O)c1ccc(N=C2SC(C(=O)Nc3ccc(OC)cc3)CC(=O)N2C)cc1 (configuration not stated) | 2 | -1
CCn1ccnc1CN1CCN(Cc2ccc(F)cc2)C(=O)C1 | -3 | -3
CCn1cc(CN(C(=O)c2nccc3ccccc23)C(C)C)cn1 | 1 | 0
CCN(Cc1ccc(CO)o1)Cc1cc(Cl)ccc1OC | -3 | 0
CN1CCN(C2CCN(S(=O)(=O)c3ccc(F)cc3)CC2)CC1 | 14 | 8
NS(=O)(=O)CCCC(=O)N1CCCC(C(=O)c2ccccc2)C1 (configuration not stated) | 2 | 1
O=C(c1cccc2c1OCCO2)N1CCc2c(sc3[nH]c(=O)n(Cc4ccco4)c(=O)c23)C1 | 4 | 2
CC(C)c1nnsc1CNC1CCC2(CCNCC2)CC1 | 5 | 3
Cn1nc(Br)c2c(N3CC(n4cccn4)C3)ncnc21 | 23 | 22
COc1cccc(C(=O)CC2c3c(c(Br)c4c(c3OC)OCO4)CCN2C)c1 (configuration not stated) | 4 | 1
COc1ccc(NC(=NS(=O)(=O)c2ccc(C)cc2)Nc2nc(C)cc(C)n2)cc1 | 1 | -6
CC(C)C(C)N(Cc1cc(N)ccc1N(C)C)C(=O)c1cccc(F)c1 (configuration not stated) | 0 | -3
Cc1nnc(CN2CCCC(CCc3ccccc3C(F)(F)F)C2)o1 (configuration not stated) | 9 | 10
C=CCOCC(O)CN(Cc1c(C)nn(-c2ccccc2)c1Oc1ccccc1Cl)CC1CCCO1 (configuration not stated) | 14 | 11
Cc1nc2sc(C)c(C)n2c(=O)c1NC(=O)CCCc1ccccc1 | 8 | 4
O=C1NCC(=O)N2C[C@H](Nc3nccc(CCC(F)(F)F)n3)C[C@@H]12 | 1 | -1
O=C1c2ccccc2NC(c2ccccc2F)N1C1CC1 (configuration not stated) | -2 | -3
C=CCOc1ccccc1C(=O)N1CC[C@H](O)[C@@H](O)C1 | 25 | 15
Cc1cccc(N2CCN(CCC(C)NS(=O)(=O)c3ccc(F)cc3)CC2)c1 (configuration not stated) | -4 | -3
Cc1onc(-c2ccccc2)c1C(=O)Nc1ccc(Br)cc1 | 5 | 4
NS(=O)(=O)c1ccc(NC2CC(=O)N(Cc3ccc(Cl)cc3)C2=O)cc1 (configuration not stated) | 4 | 2
CCCCOC(=O)c1ccc(Nc2nc(C)c([N+](=O)[O-])c(Nc3ccc(C(=O)OCCCC)cc3)n2)cc1 | 14 | 25
COc1ccc(NC(C)C(=O)N2CCc3ccccc32)cc1S(=O)(=O)N1CCCCC1 (configuration not stated) | 4 | 2
CC(C)c1cc(=O)n2c(n1)SCC2CC(=O)NCc1c(F)cccc1F (configuration not stated) | 0 | -1
O=C(c1cc(Br)ccc1Cl)N1CC(CO)Oc2ccccc21 (configuration not stated) | 1 | 19
Cc1ccccc1S(=O)(=O)NC(=O)C1(C)CCN1C(=O)Cc1ccccc1Cl (configuration not stated) | 8 | 6
CC1(C(=O)NS(=O)(=O)c2ccc(Cl)cc2)CCN1C(=O)Cc1ccc(-c2ccccc2)cc1 (configuration not stated) | 0 | -2
Cc1nn(C(C)(C)C)c2c1C(c1cc3c(cc1[N+](=O)[O-])OCO3)C1C(=O)CC(C)(C)CC1=N2 (configuration not stated) | -2 | -4
CCn1cc(CNC(=O)c2ccccc2I)c(C)n1 | 8 | 11
CNC(=O)c1nn(Cc2cc(C)on2)c(=O)c2ccccc12 | 7 | 3
CC(C)Oc1ccc(Br)cc1N | 5 | 0
COc1ccc(S(=O)(=O)N(C)C)cc1NC(C)C(=O)Nc1cccc(C#N)c1 (configuration not stated) | 2 | 0
COc1cccc2c1OCC(C(=O)N1CCc3ccccc3C1)C2 (configuration not stated) | 10 | 3
Cc1csc(SCCn2c(N3CCN(c4ccccc4)CC3)nc3c2c(=O)[nH]c(=O)n3C)n1 | 2 | 8
O=C(CSc1ccc2nnc(CCNC(=O)c3ccc(F)cc3)n2n1)NCc1ccccc1 | 7 | -7
Cc1ccc(S(=O)(=O)Nc2ccc(Cl)c(C#N)c2)cc1 | 1 | 0
NC(=O)CCCCCNC(N)=O | -2 | -10
COc1ccc(-c2cn[nH]c2-c2ccc(OCCN3CCOCC3)c(C)c2O)cc1 | 5 | 2
Cc1c(C(=O)NCc2cccnc2N2CCN(C)CC2)cnn1-c1ccccn1 | 2 | 4
CCc1nc2ccc(C(=O)N3CCNC(=O)C3)cn2c1N(CC)C(=O)CCC1CCCC1 | 21 | 12
CCN(CCN(C)C)CC1=CCC2CC1C2(C)C (configuration not stated) | -10 | -18
Cc1nc2ccc(Cl)cn2c1CN(C)Cc1nnc(-c2ccccc2)o1 | -3 | -3
CCCn1cc(C(=O)NC2CCC(n3cnnc3)CC2)c(C)n1 (configuration not stated) | 4 | 3
Cc1nn2c(=O)[nH]c(SCC(=O)N3CCCC3)nc2c1-c1ccccc1 | -5 | -4
COC(=O)c1ccc(C(=O)N2CCc3ccccc3C2c2ccccc2F)cc1 (configuration not stated) | -2 | 2
O=c1nc(SCc2ccccc2F)c2c([nH]1)CCCC2 | 0 | -3
N#Cc1c(-c2ccc(F)cc2)cc(-c2cccs2)nc1SCCOc1ccccc1 | -4 | -6
CCOC(=O)C1=C(CC)NC2=C(C(=O)CC(C)(C)C2)C1c1ccccc1OC (configuration not stated) | -1 | -3
Cc1cc(C(F)(F)F)nn1CC(=O)N(C)c1ccccc1 | -1 | -11
COC(=O)C1=C(C)N(C)C(C)=C(C(=O)OC)C1c1ccccc1 | 3 | 0
CCOc1ccc(C(C2Sc3nc(C)nn3C2=O)N2CCN(Cc3ccccc3)CC2)cc1 (configuration not stated) | -5 | -9
Cn1ccnc1-c1ccc(N2CCC(n3nccc3NC(=O)C3CC3)CC2)nn1 | 0 | 0
CC(CCC(C)C)=NNc1cc(C)c2ccccc2n1 | 3 | 8
COC(=O)c1ccc(/C=C2/SC(=S)NC2=O)cc1 | -3 | -5
Cc1nc(NC(=O)CNC(=O)Cc2cccc(F)c2)sc1SCC#N | 15 | 12

Later entries.
SMILES | NPYLR7 agonist | NPYLR7 agonist max-min
CCCn1ccc2cc(NS(=O)(=O)c3c(C)noc3C)ccc21 | 1 | 2
Cc1ccc(C(=O)N(C)C2CCCCC2)cc1S(=O)(=O)NCc1ccccc1 | 0 | 0
O=C(O)c1cnc(/C=C/c2ccc3ncccc3c2)s1 | 0 | -1
COc1cccc(OC)c1C(=O)N1CCC2(CC1)OCC(C(=O)NCc1ccco1)N2C(=O)c1ccc(F)cc1 (configuration not stated) | 33 | 32
COc1ccc(N(C)S(=O)(=O)c2ccc(OC)c(N3CCN(C(=O)c4ccc(C#N)cc4)CC3)c2)cc1 | 19 | 10

An excerpt taken from the entries so far, for reference:
SMILES | NPYLR7 agonist | NPYLR7 agonist max-min
COc1cccc(OC)c1C(=O)N1CCC2(CC1)OCC(C(=O)NCc1ccco1)N2C(=O)c1ccc(F)cc1 (configuration not stated) | 33 | 32
COc1ccc(N(C)S(=O)(=O)c2ccc(OC)c(N3CCN(C(=O)c4ccc(C#N)cc4)CC3)c2)cc1 | 19 | 10

Only part of the results is shown (hit frequency here may not be typical).
